Bioassay records as filed in PubChem BioAssay.
PKD1 inh: inhibitors of human PKD1 kinase, biochemical, fluorescence polarization | PKD1 kinase fluorescence polarization assay | inhibition, %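 (about 10 µM by stock and volumes)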 | hit rate 0.056% among 200,000;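 active = inhibition of 50% or more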;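 also: controls were vehicle for no effect and a reference inhibitor for full effect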
RGS16-Gao: modulators of RGS16 binding to Galphao, primary screen, biochemical, human proteins, multiplexed bead flow cytometry; bead-based flow cytometry RGS16-Galphao binding, fluorescence; actives lie on both sides; binding response (% of control), % at 10 µM; hit rate 0.38% among 220,000; AID 1441, 2008;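 active = below 25% or above 175%, edge rows of some plates excepted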;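 also: Galphao activated by GDP with aluminum fluoride before binding; 100% = wells without compound and 0% = beads without RGS; some results beyond the cut were filed as inactive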
Target sequence (O15492 whole entry, looked up): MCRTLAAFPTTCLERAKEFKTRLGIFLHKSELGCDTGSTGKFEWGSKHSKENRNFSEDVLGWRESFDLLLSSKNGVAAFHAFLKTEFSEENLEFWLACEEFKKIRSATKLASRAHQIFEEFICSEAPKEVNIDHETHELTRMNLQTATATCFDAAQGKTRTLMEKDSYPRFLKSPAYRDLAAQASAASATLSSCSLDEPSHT
Target sequence (P09471 whole entry, looked up): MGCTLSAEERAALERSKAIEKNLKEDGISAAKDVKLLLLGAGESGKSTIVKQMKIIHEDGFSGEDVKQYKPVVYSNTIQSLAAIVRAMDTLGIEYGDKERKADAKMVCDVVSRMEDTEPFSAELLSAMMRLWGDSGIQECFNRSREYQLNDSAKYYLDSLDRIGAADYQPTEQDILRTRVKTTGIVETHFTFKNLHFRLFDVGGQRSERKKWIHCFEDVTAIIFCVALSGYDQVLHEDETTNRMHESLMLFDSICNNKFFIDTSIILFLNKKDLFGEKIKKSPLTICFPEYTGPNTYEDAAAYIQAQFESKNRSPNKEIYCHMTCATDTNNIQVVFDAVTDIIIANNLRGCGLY
HSV augment: enhancers of HSV replication in host cells, fold increase, host cell viability; HSV replication augmentation in cells; maximum fold increase; hit rate 0.005% among 220,000;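 active = peak rise of 1.5-fold or more in the series; tested in PC3 cells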;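 also: first round at 10 µM; read as green reporter fluorescence; hits show the peak of a series up to 25 µM; 1 = signal of infected wells without compound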
GALR2 ag: GALR2 receptor agonists, primary screen, cell-based; Galanin receptor type 2 (Homo sapiens), O43603; GALR2-expressing cells, agonist activation read-out; activation, %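 (tested at 5 µM)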; hit rate 0.48% among 140,000; AID 803, 2007;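 active = above mean plus 3 SD of all compounds, about 5% in these data, not always enough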;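 also: 0% = vehicle buffer wells and 100% = reference agonist at full effect; tested in CHO reporter cells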
Target sequence (O43603 whole entry, looked up): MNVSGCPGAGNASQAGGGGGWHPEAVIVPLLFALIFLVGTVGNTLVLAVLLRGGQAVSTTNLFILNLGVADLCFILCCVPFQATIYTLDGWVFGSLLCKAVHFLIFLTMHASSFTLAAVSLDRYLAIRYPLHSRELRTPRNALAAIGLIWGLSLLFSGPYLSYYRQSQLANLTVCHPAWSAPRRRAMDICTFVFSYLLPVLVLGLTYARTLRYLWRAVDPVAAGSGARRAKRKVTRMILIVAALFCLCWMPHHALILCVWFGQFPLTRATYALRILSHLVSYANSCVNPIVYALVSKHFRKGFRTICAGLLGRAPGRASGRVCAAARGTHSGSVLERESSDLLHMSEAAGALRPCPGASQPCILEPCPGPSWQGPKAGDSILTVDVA
Insulin prom inh: inhibitors of insulin promoter-driven GFP, primary screen, imaging, TRM-6 cells (human fetal islet line), eGFP reporter, cell count; reporter expression induced with tamoxifen; inhibition, % at 2 µM; hit rate 0.9% among 130,000; AID 1273, 2008;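 active = inhibition above the mean plus 3 SD, with well images judged a real hit on visual review, cut at about 60% in these data, passing the limit was not always enough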
Insulin prom inh cell count: recorded beside Insulin prom inh, whose call it bears; normalized cell count, %; measured here: cell count, toxicity; reference of the scale not given here;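 cells exposed to compound for 48 h; stained nuclei by imaging scaled within each plate; lower means fewer cells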
HSV augment primary fold: recorded beside HSV augment, whose call it bears; fold increase; compound at 10 µM; measured here: primary screen fold increase 10 uM; tested in PC3 cells;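 GFP signal in the first replicate; 1 = infected wells without compound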
Numbers without * were called inactive; i = inactive; · = no result given.

Start of the data: the first 2 compounds (preview)
SMILES	PKD1 inh	RGS16-Gao	HSV augment	HSV augment primary fold	GALR2 ag	Insulin prom inh	Insulin prom inh cell count
Cc1cc(C)nc(NS(=O)(=O)c2ccc(NC(=O)C3COc4ccccc4O3)cc2)n1 (stereo unspecified)	4	97	i	1.2	·	24	75
O=CN1CCN(C(=O)c2ccc(-c3nc4ccccc4s3)s2)CC1	2	101	i	0.95	·	-7	56

This part in full, repeating the preview:
SMILES	PKD1 inh	RGS16-Gao	HSV augment	HSV augment primary fold	GALR2 ag	Insulin prom inh	Insulin prom inh cell count
Cc1cc(C)nc(NS(=O)(=O)c2ccc(NC(=O)C3COc4ccccc4O3)cc2)n1 (stereo unspecified)	4	97	i	1.2	·	24	75
O=CN1CCN(C(=O)c2ccc(-c3nc4ccccc4s3)s2)CC1	2	101	i	0.95	·	-7	56
COc1ccc(-c2csc3nc(-c4ccccc4F)oc(=O)c23)cc1	·	97	i	0.91	·	·	·
O=C1C=C(N2CCOCC2)C2(CCCCC2)O1	-3	108	i	1	·	-53	78
CCCCOc1ccc(C(=O)NNC(=S)NC(=O)CC)cc1	-1	101	i	0.66	-1.2	21	108
COc1cc(OC)c(C(=O)Nc2ccccc2-c2ccccc2)cc1OC	15	102	i	0.92	0.1	·	·
Cc1noc(C)c1COc1cccc(C(=O)OCC(=O)NC(=O)c2ccc(OC(F)F)cc2)c1	-8	102	i	0.85	0.4	14	83
CC(C)(C)c1ccc(C(=O)N/C(N)=N/c2nc3ccccc3o2)cc1	1	97	i	1.1	0.4	33	84
CC(C)N(CC#CC(O)(c1ccccc1)c1ccccc1)CCO	3	86	i	0.91	-0.5	-57	99
CSc1ccccc1NC(=O)c1cc(C(C)C)on1	-5	100	i	1.1	-3.3	8	128
COc1ccc(C(=O)c2ccc(Cl)cc2)c2ccccc12	1	102	i	0.8	-1.9	-46	90
CCOC(=O)C(C)Sc1nc(-c2ccccn2)ncc1OC (stereo unspecified)	1	98	i	1.1	·	·	·
CCCCCOC(=O)Cn1c(=O)oc2ccccc21	-4	92	i	0.71	1.5	14	64
CC(C)(C)C(=O)NNC(=O)COc1ccc2ccccc2c1Br	6	95	i	0.94	·	21	94
O=C1CNC(=O)N1CC(O)Cn1c2ccccc2c2ccccc21 (stereo unspecified)	-7	101	i	0.9	·	·	·
CCC(C)(C)n1c(=O)[nH]c2c(c1=O)CCC2	-1	103	i	1	-0.5	50	137
CC(C)N(C(=O)C[n+]1ccc(/C=N/O)cc1)C(C)C	-2	53	i	1	-2.2	·	·
CN(CC(=O)Nc1ccccc1C(F)(F)F)C(=O)COc1ncnc2sccc12	-16	104	i	0.99	-0.1	·	·
CC(Sc1ccccn1)C(=O)Nc1ccc(S(N)(=O)=O)cc1 (stereo unspecified)	-2	101	i	1.1	-3.6	·	·
CCn1c(=O)c(C(=O)NNS(=O)(=O)c2ccc(Br)cc2)c(O)c2ccccc21	-5	109	i	0.94	·	·	·
O=C1C(=O)N(CCN2CCOCC2)C(c2ccccn2)/C1=C(/O)c1ccccc1 (stereo unspecified)	-2	136	i	1.2	-0.6	29	34
NS(=O)(=O)c1ccc(NC(=O)CSC2=NC(=O)C(c3ccccc3)C(=O)N2)cc1 (stereo unspecified)	-10	103	i	0.99	-1.2	·	·
CC1Cc2nc(SCC(=O)N3CCOCC3)n(-c3ccccc3)c(=O)c2S1 (stereo unspecified)	1	103	i	1	-1.2	·	·
CCCOC(=O)CC1C(=O)NCCN1C(=O)OC(C)(C)C (stereo unspecified)	0	87	i	0.78	·	·	·
CCn1c(CCNC(=O)c2ccc(C)cc2)nnc1SCc1ccc(Cl)c(Cl)c1	0	103	·	·	-1.1	·	·
CCOC(=O)Cn1nnnc1CN(Cc1ccc(OC)cc1)Cc1cc2cc(CC)ccc2[nH]c1=O	-11	86	i	0.95	-0.7	-15	83
CC(=O)Oc1c(C(=O)c2nnc(C)o2)c(=O)n(C)c2ccccc12	2	103	i	1.1	-0.6	10	63
Cc1ccc(N/C(N)=N/c2nc(CSc3nnc(C)s3)cc(=O)[nH]2)c(C)c1	-9	96	i	0.83	·	·	·
NC(=O)C[n+]1cccc(C(N)=O)c1	-2	110	i	0.83	·	19	87
Cc1ccc(S(=O)(=O)N2CCCCC2)cc1NC(=O)CSc1nccn1C	-2	101	i	1.2	·	-145	102
CCOC(=O)C1=C(C)Nc2ccccc2N=C1NC(=O)Cc1ccc(Cl)c(Cl)c1	-8	90	i	0.9	·	-190	69
COc1ccc(NC2CC(=O)N(c3cccc(C)c3)C2=O)cc1 (stereo unspecified)	-5	106	i	0.9	-3.1	i	73
Cc1ccc(-c2ccc(SCC(=O)Nc3cc(C)on3)nn2)cc1	-1	94	i	0.81	·	-75	174
O=C(CN1C(=O)C2(OCCO2)c2ccccc21)c1ccc(Br)cc1	-2	106	i	0.84	-0.9	·	·
COc1ccc(CN2CCN(c3ccccn3)CC2)c(OC)c1C	·	93	i	1	·	·	·
CCSc1nnc(NS(=O)(=O)c2ccc(OC)cc2)s1	-5	99	i	0.95	·	·	·
CCN(C(=O)CSc1nnc2nc(C)cc(C)n12)c1ccccc1	2	98	i	1	·	·	·
CCOCC(=O)Nc1cc(OC)c(Cl)cc1OC	-6	104	i	0.95	-0.1	43	82
CC(C)(C)c1ccc(OCc2ccc(C(=O)N/N=C/c3ccc(O)c(O)c3)cc2)cc1	0	96	i	0.9	·	·	·
c1ccc(N2CCN(c3ccc4nncn4n3)CC2)nc1	-9	109	i	0.85	-0.2	·	·
O=C(C1=C[C@H](c2ccc(C(F)(F)F)cc2)C[C@H](OCCCCO)O1)N1CCN(Cc2ccc3c(c2)OCO3)CC1	-5	100	i	1.1	·	·	·
S=C(NCCc1ccccc1)Nc1cccc2cnccc12	1	110	i	0.95	·	73*	147*
COc1ccc(/C=C/C(=O)c2ccccc2O)cc1CN1CCOCC1	3	106	i	0.88	0.2	8	72
CCOC(=O)c1sc(=NC(=O)c2ccc(OC(C)C)cc2)n(C)c1C	-5	107	i	0.86	·	-33	75
C/C(=N\NC(=O)CSc1nc(C)cc(C)n1)c1cccs1	-1	104	i	0.96	0.0	3	134
Cc1c(CBr)[n+](=O)c2c(n1[O-])C(Br)CCC2Br (stereo unspecified)	·	90	i	1	·	·	·
CCOC(=O)C1CCCN(Cc2cc(=O)oc3cc(C)c(C)cc23)C1 (stereo unspecified)	6	103	i	0.98	·	-14	123
S=C1NC2(CCCC2)Nc2ccccc21	6	99	i	1.1	·	·	·
Cc1ccc(N/C(N)=N/c2nc3c(c(=O)[nH]2)CCCC3)c(C)c1	-3	95	i	0.68	-0.9	0	89
Cc1ccc(/C=N/NC(=O)CSc2nc3ccccc3c(=O)n2-c2ccccc2)s1	-8	106	i	0.87	-0.9	33	82
Cc1cccc(NC(=S)NCCCN2CCOCC2)c1	-2	100	i	0.99	-1.3	-37	133
O=C(CSc1n[nH]c(-c2ccc(S(=O)(=O)N3CCCCC3)cc2)n1)Nc1nccs1	-1	·	·	·	-0.2	·	·
S=c1[nH]nc(COc2ccccc2)n1Cc1ccccc1	3	3.7*	i	1.1	0.1	-62	74
Cc1ccc2cc(-c3noc(C4CCCCC4)n3)c(=O)[nH]c2c1	-3	104	·	·	·	·	·
CN(C(=O)COC(=O)c1cccnc1Nc1ccccc1F)C1CCS(=O)(=O)C1 (stereo unspecified)	-13	99	i	1	-0.1	-3	144
Clc1ccc(C2=NOC(c3nnc(-c4ccccc4)o3)C2)cc1 (stereo unspecified)	·	89	i	0.75	·	·	·
C[C@@H]1O[C@@H](Oc2c(-c3cc(O)c(O)c(O)c3)oc3cc(O)cc(O)c3c2=O)[C@H](O)[C@H](O)[C@H]1O	24	85	i	0.92	-1.4	40	108
O=C(c1cc(C2CC2)on1)N1CCN(c2ccc(F)cc2)CC1	-4	102	i	0.94	-0.8	·	·
CCOc1ccc(Br)cc1S(=O)(=O)Nc1cccc(S(=O)(=O)N(CC)CC)c1	-5	105	i	0.85	-0.7	-17	80
COc1ccc(OC)c(N(CC(=O)NCc2ccccn2)S(C)(=O)=O)c1	-2	100	i	0.84	0.7	·	·

5 of the compounds above, with values under each structure:
Below each SMILES – PKD1 inh, RGS16-Gao, HSV augment, HSV augment primary fold, GALR2 ag, Insulin prom inh, Insulin prom inh cell count
O=CN1CCN(C(=O)c2ccc(-c3nc4ccccc4s3)s2)CC1
→ 2, 101, i, 0.95, ·, -7, 56
COc1ccc(-c2csc3nc(-c4ccccc4F)oc(=O)c23)cc1
→ ·, 97, i, 0.91, ·, ·, ·
O=C1C=C(N2CCOCC2)C2(CCCCC2)O1
→ -3, 108, i, 1, ·, -53, 78
CCCCOc1ccc(C(=O)NNC(=S)NC(=O)CC)cc1
→ -1, 101, i, 0.66, -1.2, 21, 108
COc1cc(OC)c(C(=O)Nc2ccccc2-c2ccccc2)cc1OC
→ 15, 102, i, 0.92, 0.1, ·, ·

For convenience, 5 of the compounds above.
SMILES	PKD1 inh	RGS16-Gao	HSV augment	HSV augment primary fold	GALR2 ag	Insulin prom inh	Insulin prom inh cell count
O=C(C1=C[C@H](c2ccc(C(F)(F)F)cc2)C[C@H](OCCCCO)O1)N1CCN(Cc2ccc3c(c2)OCO3)CC1	-5	100	i	1.1	·	·	·
S=C(NCCc1ccccc1)Nc1cccc2cnccc12	1	110	i	0.95	·	73*	147*
COc1ccc(/C=C/C(=O)c2ccccc2O)cc1CN1CCOCC1	3	106	i	0.88	0.2	8	72
CCOC(=O)c1sc(=NC(=O)c2ccc(OC(C)C)cc2)n(C)c1C	-5	107	i	0.86	·	-33	75
C/C(=N\NC(=O)CSc1nc(C)cc(C)n1)c1cccs1	-1	104	i	0.96	0.0	3	134

Carrying on.
SMILES	PKD1 inh	RGS16-Gao	HSV augment	HSV augment primary fold	GALR2 ag	Insulin prom inh	Insulin prom inh cell count
COc1ccc(C2=Nn3c(nnc3-c3ccncc3)SC2)cc1OC	-5	110	i	0.99	-2.1	24	87
COc1ccc2nc(C)cc(SCC(=O)Nc3c(C)cc(C)cc3C)c2c1	-4	107	i	0.86	-2.7	-7	99
O=C(CCSc1ccccc1)NCC1CCCO1 (stereo unspecified)	-2	99	i	1	-3.0	50	116
COCCn1nnnc1C(c1ccc(OC)c(OC)c1)N1CCc2ccccc21 (stereo unspecified)	-11	112	i	0.86	-0.4	·	·
O=C(N/N=C/c1ccccc1Cl)c1nc2ccc([N+](=O)[O-])cc2c(=O)[nH]1	-5	100	i	1.2	·	6	103
CCCc1ccc(-c2cc(C(=O)Nc3ccc([N+](=O)[O-])cn3)c3ccccc3n2)cc1	-9	104	i	1	-0.2	·	·
COc1cc(C)c2occ(/C(C)=N\O)c2c1	-2	102	i	1.1	0.7	50	90
COc1ccc(OC)c(N/C(C)=C/C(=O)c2ccc(Br)cc2)c1	-10	102	i	0.96	·	-24	125
Cc1ccc(S(=O)(=O)c2c(N)n(-c3ccccc3)c3nc4ccccc4nc23)cc1	12	103	i	1	-0.6	·	·
O=S(=O)(c1cccc(-n2cnnn2)c1)N1CCOCC1	4	104	i	1	-4.7	·	·
CN(Cc1ccccc1)C(=O)COc1ccc(-c2nnco2)cc1	-2	104	i	0.99	-2.1	13	178
CCCNC(=S)NC1CCCC1	-3	95	i	1.2	-2.3	-14	111
CCOc1cc(C(=O)Nc2ccc(C)cc2C)ccc1OCC(=O)N1CCCCC1	-7	104	i	1	1.1	·	·
Cc1cccc(N2C(=O)CC(Sc3nnc(C)s3)C2=O)c1 (stereo unspecified)	-10	100	i	1	-1.5	-11	90
COc1cc(OC)c(C(=O)NNC(=S)NC2CCCCC2)cc1OC	-10	104	i	0.96	0.0	-8	102
Cc1nnc2n1N=C(c1ccc3c(c1)NC(=O)CO3)CS2	·	101	i	1.1	·	·	·
C/C(=N\Nc1ccc(S(N)(=O)=O)cc1[N+](=O)[O-])c1ccccc1O	·	101	i	0.79	·	·	·
CC(=O)N(c1ccccc1)C1CCCC1	4	104	i	0.99	-1.1	-60	108
O=C(C1CCCN(S(=O)(=O)c2cccs2)C1)N1CCC(N2CCCCC2)CC1 (stereo unspecified)	-6	103	i	0.82	-2.0	-40	83
O=C(COc1ccc2c(c1)CCC2)N1CCc2ccccc21	-10	101	i	0.98	-0.8	·	·
COc1cccc(C(=O)O/N=C(\N)Cc2ccc(Cl)cc2)c1	-12	103	i	0.92	-0.9	14	79
